A1 apoptosis 2 = compounds inhibiting A1, read as caspase activation; MEF A1-2A-BIM cells, caspase-Glo luminescence, 3 h; percent of clofoctol response, DMSO zero; caspase activation, % (test concentration not listed); 24,000 tested, under 10 active; in the data active = caspase activation above about 5.9%;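 note: wells of about 30 µL received 50 nL stock; the first replicate is given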
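Material: A1-2A-BIM-expressing MEF cells. Buffer or medium: RPMI-1640 plus 10% FBS. Incubation: cells settled overnight, compound exposure 3 h at 37 °C, 5% CO2. Signal: Caspase-Glo 3/7 luminescence, 1 h at room temperature.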
An asterisk follows results filed as active. A portion of the library; count on the stated rates, not on these rows.

How did C[C@H]1CN([C@@H](C)CO)C(=O)CCCn2nncc2CO[C@H]1CN(C)C(=O)Nc1cccc(C(F)(F)F)c1 do in these assays?
A1 apoptosis 2: 0.1

What do the screens show for `C=C[C@@H](C)[C@@H](OC(=O)Nc1ccc(OC)cc1)c1ccc(OCCO)cc1`?
A1 apoptosis 2: 0.5

Results for C[C@@H]1CCCCO[C@@H](CN(C)C(=O)C2CCCCC2)[C@H](C)CN([C@@H](C)CO)C(=O)c2cc(N(C)C)ccc2O1 ?
A1 apoptosis 2: -0.6

What do the screens show for `C[C@H]1CN([C@@H](C)CO)C(=O)c2cc(NC(=O)CCC(F)(F)F)ccc2O[C@@H]1CN(C)Cc1ccncc1`?
A1 apoptosis 2: 1.0

How did C[C@@H]1CCCCO[C@@H](CN(C)S(=O)(=O)c2cccs2)[C@@H](C)CN([C@H](C)CO)C(=O)c2cc(N(C)C)ccc2O1 do in these assays?
A1 apoptosis 2: 0.7

How did C[C@H](CO)N1C[C@H](C)[C@@H](CN(C)S(=O)(=O)c2cn(C)cn2)OCCCC[C@H](C)Oc2ccc(NS(=O)(=O)c3cn(C)cn3)cc2C1=O do in these assays?
A1 apoptosis 2: 1.5

Results for CNC[C@@H]1Oc2ccc(NS(=O)(=O)c3cccs3)cc2CC(=O)N([C@H](C)CO)C[C@H]1C ?
A1 apoptosis 2: 0.9

What do the screens show for `C[C@@H]1CN([C@H](C)CO)C(=O)c2cc(NC(=O)CCCN(C)C)ccc2O[C@@H](C)CCCCO[C@@H]1CN(C)Cc1ccccc1`?
A1 apoptosis 2: -1.0

What do the screens show for `Cc1noc(C)c1S(=O)(=O)Nc1ccc2c(c1)C(=O)N([C@@H](C)CO)C[C@@H](C)[C@@H](CN(C)Cc1ccc(-c3ccccc3)cc1)O2`?
A1 apoptosis 2: 1.6

What do the screens show for `C[C@H](CO)N1C[C@H](C)[C@@H](CN(C)S(=O)(=O)c2ccc(F)cc2)Oc2ccc(NC(=O)CCC(F)(F)F)cc2C1=O`?
A1 apoptosis 2: 0.6

Results for C[C@H]1CN([C@@H](C)CO)C(=O)CCCn2cc(nn2)CO[C@H]1CN(C)C(=O)Nc1cccc2ccccc12 ?
A1 apoptosis 2: -0.9

Results for COc1ccc(S(=O)(=O)N(C)C[C@@H]2OCCCC[C@@H](C)Oc3ccc(NC(=O)Nc4ccccc4)cc3C(=O)N([C@H](C)CO)C[C@H]2C)cc1 ?
A1 apoptosis 2: -0.2

How did C[C@H](CO)N1C[C@H](C)[C@@H](CN(C)S(C)(=O)=O)Oc2c(NC(=O)Nc3cccc4ccccc34)cccc2C1=O do in these assays?
A1 apoptosis 2: 0.6

How did C[C@H](CO)N1C[C@H](C)[C@@H](CN(C)Cc2ccc(Oc3ccccc3)cc2)Oc2c(NC(=O)Nc3ccc(F)cc3)cccc2C1=O do in these assays?
A1 apoptosis 2: 1.0

Results for Cc1noc(C)c1S(=O)(=O)N(C)C[C@@H]1OCCCC[C@H](C)Oc2ccc(NC(=O)c3ccccc3)cc2C(=O)N([C@H](C)CO)C[C@@H]1C ?
A1 apoptosis 2: -0.3

How did C[C@H]1CN([C@@H](C)CO)C(=O)Cc2cc(NS(=O)(=O)c3cn(C)cn3)ccc2O[C@@H]1CN(C)C(=O)Nc1ccccc1 do in these assays?
A1 apoptosis 2: -1.7

Results for Cc1ncc(CO)c(/C=N/NC(=O)CCCCCC(=O)Nc2ccccc2O)c1O ?
A1 apoptosis 2: -1.4

What do the screens show for `C[C@H](CO)N1C[C@H](C)[C@H](CN(C)S(=O)(=O)c2cccs2)Oc2ncccc2C1=O`?
A1 apoptosis 2: 0.7

Results for C[C@H](CO)N1C[C@H](C)[C@@H](CN(C)C(=O)Cc2ccccc2)OCCCC[C@H](C)Oc2ccc(NC(=O)c3ccncc3)cc2C1=O ?
A1 apoptosis 2: -0.6

What do the screens show for `C[C@H]1CN([C@@H](C)CO)C(=O)c2cccc(NC(=O)c3ccncc3)c2O[C@H]1CN(C)Cc1ccc2c(c1)OCO2`?
A1 apoptosis 2: -0.7

Results for COc1ccc(NC(=O)N(C)C[C@@H]2Oc3c(NS(=O)(=O)c4ccc(F)cc4)cccc3C(=O)N([C@H](C)CO)C[C@@H]2C)cc1 ?
A1 apoptosis 2: -0.5

Results for C[C@H]1CCCCO[C@H](CN(C)S(=O)(=O)c2cccs2)[C@@H](C)CN([C@@H](C)CO)C(=O)c2cc(NS(=O)(=O)c3cccs3)ccc2O1 ?
A1 apoptosis 2: -0.9

What do the screens show for `C[C@@H]1CN([C@@H](C)CO)C(=O)c2cccc(NC(=O)c3ccncc3)c2O[C@@H]1CN(C)Cc1ccc(Oc2ccccc2)cc1`?
A1 apoptosis 2: 1.6

How did COc1ccc(NC(=O)Nc2ccc3c(c2)CC(=O)N([C@@H](C)CO)C[C@@H](C)[C@@H](CN(C)CC2CCCCC2)O3)cc1 do in these assays?
A1 apoptosis 2: 0.2

Results for Cc1ccc(S(=O)(=O)Nc2ccc3c(c2)C(=O)N([C@@H](C)CO)C[C@@H](C)[C@@H](CN(C)C(=O)Nc2ccc(C(F)(F)F)cc2)OCCCC[C@@H](C)O3)cc1 ?
A1 apoptosis 2: -0.9

What do the screens show for `CNC[C@H]1Oc2ccc(NC(=O)Nc3ccc(F)cc3)cc2CC(=O)N([C@@H](C)CO)C[C@H]1C`?
A1 apoptosis 2: -0.7

Results for C[C@@H]1CCCCO[C@@H](CN(C)C(=O)Cc2ccccc2)[C@@H](C)CN([C@H](C)CO)C(=O)c2cc(NC(=O)C3CCCCC3)ccc2O1 ?
A1 apoptosis 2: -1.6

Results for C[C@@H]1CN([C@@H](C)CO)C(=O)CCCn2nncc2CO[C@@H]1CN(C)S(=O)(=O)c1cn(C)cn1 ?
A1 apoptosis 2: -0.2

Results for CCCN(C)C[C@@H]1OCCCC[C@@H](C)Oc2ccc(NS(=O)(=O)c3ccc(C)cc3)cc2C(=O)N([C@H](C)CO)C[C@H]1C ?
A1 apoptosis 2: 0.2

How did C[C@@H]1CN([C@@H](C)CO)C(=O)CCCn2nncc2CO[C@@H]1CN(C)C(=O)NC1CCCC1 do in these assays?
A1 apoptosis 2: -0.5

How did CC(C)NC(=O)N(C)C[C@@H]1Oc2ccc(NC(=O)Nc3ccc4c(c3)OCO4)cc2C(=O)N([C@H](C)CO)C[C@@H]1C do in these assays?
A1 apoptosis 2: -0.4

Results for COc1ccc(CN(C)C[C@@H]2OCCCC[C@@H](C)Oc3ccc(NC(=O)c4ccncc4)cc3C(=O)N([C@H](C)CO)C[C@@H]2C)cc1 ?
A1 apoptosis 2: 0.8

How did C[C@H]1CN([C@@H](C)CO)C(=O)CCCn2nncc2CO[C@@H]1CN(C)C(=O)Nc1ccnc(N2CCOCC2)c1 do in these assays?
A1 apoptosis 2: -0.4

Results for C[C@@H]1CN([C@H](C)CO)C(=O)Cc2cc(NS(=O)(=O)c3ccccc3)ccc2O[C@@H]1CN(C)C(=O)NC1CCCCC1 ?
A1 apoptosis 2: 0.4

How did CC(C)NC(=O)N(C)C[C@H]1Oc2ccc(NC(=O)Nc3ccc(F)cc3)cc2C(=O)N([C@@H](C)CO)C[C@H]1C do in these assays?
A1 apoptosis 2: 1.9

How did Cc1noc(C)c1S(=O)(=O)N(C)C[C@H]1OCCCC[C@@H](C)Oc2ccc(NC(=O)CCCCCC(=O)Nc3ccccc3N)cc2C(=O)N([C@@H](C)CO)C[C@@H]1C do in these assays?
A1 apoptosis 2: -0.6

Results for C[C@@H]1CCCCO[C@H](CN(C)C(=O)CCC(F)(F)F)[C@@H](C)CN([C@H](C)CO)C(=O)c2cc(NC(=O)Cc3ccccc3)ccc2O1 ?
A1 apoptosis 2: -1.1

How did CC(C)NC(=O)N(C)C[C@@H]1OCCCC[C@@H](C)Oc2ccc(NC(=O)Nc3ccc(F)cc3)cc2C(=O)N([C@H](C)CO)C[C@H]1C do in these assays?
A1 apoptosis 2: -0.9

How did C[C@H]1CN([C@@H](C)CO)C(=O)Cc2cc(N(C)C)ccc2O[C@H]1CN(C)C(=O)Nc1ccccc1 do in these assays?
A1 apoptosis 2: 1.4

What do the screens show for `COC(=O)[C@H](Cc1ccc(N=[N+]=[N-])cc1)N[C@H](/C=C/C1CC1)[C@@H](O)Cc1ccccc1`?
A1 apoptosis 2: -0.2

Results for C[C@H]1CN([C@@H](C)CO)C(=O)c2cc(NS(=O)(=O)c3cccs3)ccc2O[C@H]1CN(C)CC1CC1 ?
A1 apoptosis 2: -0.5

Results for C[C@H]1CN([C@@H](C)CO)C(=O)c2cc(NC(=O)Cc3ccccc3)ccc2O[C@H]1CN(C)C(=O)Nc1ccccc1 ?
A1 apoptosis 2: -0.4

Results for C[C@H](CO)N1C[C@H](C)[C@H](CN(C)S(=O)(=O)c2cn(C)cn2)Oc2ccc(NC(=O)Nc3ccc(F)cc3)cc2C1=O ?
A1 apoptosis 2: 0.2

Results for C[C@@H]1CN([C@H](C)CO)C(=O)Cc2cc(NC(=O)C3CC3)ccc2O[C@@H]1CN(C)Cc1ccc(Oc2ccccc2)cc1 ?
A1 apoptosis 2: 0.9

How did Cc1noc(C)c1S(=O)(=O)N(C)C[C@H]1Oc2c(NS(C)(=O)=O)cccc2C(=O)N([C@@H](C)CO)C[C@H]1C do in these assays?
A1 apoptosis 2: 0.1

Results for C[C@H](CO)N1C[C@H](C)[C@@H](CN(C)S(=O)(=O)c2ccccc2)Oc2ccc(NC(=O)Cc3ccccc3)cc2CC1=O ?
A1 apoptosis 2: 0.4

How did CC(C)NC(=O)N(C)C[C@H]1Oc2ccc(NC(=O)c3ccncc3)cc2C(=O)N([C@H](C)CO)C[C@@H]1C do in these assays?
A1 apoptosis 2: -0.4

Results for Cc1noc(C)c1NC(=O)Nc1ccc2c(c1)C(=O)N([C@@H](C)CO)C[C@@H](C)[C@@H](CN(C)Cc1ccccc1)OCCCC[C@@H](C)O2 ?
A1 apoptosis 2: 0.9

How did C[C@@H]1CN([C@@H](C)CO)C(=O)Cc2cc(NC(=O)Nc3ccc4c(c3)OCO4)ccc2O[C@@H]1CN(C)CC1CC1 do in these assays?
A1 apoptosis 2: -1.3

What do the screens show for `C[C@H](CO)N1C[C@H](C)[C@@H](CN(C)C(=O)Nc2cccc3ccccc23)Oc2ccc(NC(=O)CCN3CCOCC3)cc2C1=O`?
A1 apoptosis 2: 2.6

Results for C[C@@H]1CN([C@@H](C)CO)C(=O)Cc2cc(NC(=O)Cc3cn(C)c4ccccc34)ccc2O[C@@H]1CN(C)C(=O)Nc1ccc2c(c1)OCO2 ?
A1 apoptosis 2: 0.8

How did C[C@@H]1CN([C@@H](C)CO)C(=O)c2cc(NC(=O)NC3CCCCC3)ccc2O[C@@H](C)CCCCO[C@@H]1CN(C)S(=O)(=O)c1ccc(Cl)cc1 do in these assays?
A1 apoptosis 2: 0.9

How did C[C@@H]1CN([C@@H](C)CO)C(=O)c2cc(NC(=O)CCCCCC(=O)Nc3ccccc3N)ccc2O[C@H]1CN(C)S(=O)(=O)c1ccc(Cl)cc1 do in these assays?
A1 apoptosis 2: 0.4

Results for Cc1noc(C)c1NC(=O)N(C)C[C@H]1Oc2c(NS(C)(=O)=O)cccc2C(=O)N([C@H](C)CO)C[C@@H]1C ?
A1 apoptosis 2: -2.0

Results for C[C@H]1CN([C@@H](C)CO)C(=O)Cc2cc(N(C)C)ccc2O[C@@H]1CN(C)S(=O)(=O)c1cccs1 ?
A1 apoptosis 2: 0.4

Results for C[C@@H]1CCCCO[C@H](CN(C)C(=O)CCC(F)(F)F)[C@@H](C)CN([C@H](C)CO)C(=O)c2cc(NC(=O)CCC(F)(F)F)ccc2O1 ?
A1 apoptosis 2: -0.5

Results for C[C@@H]1CCCCO[C@@H](CN(C)C(=O)Nc2cccc3ccccc23)[C@H](C)CN([C@@H](C)CO)C(=O)c2cc(NC(=O)Nc3ccccc3)ccc2O1 ?
A1 apoptosis 2: 1.2

What do the screens show for `COc1ccc(CN(C)C[C@@H]2Oc3ccc(NC(=O)Cc4cn(C)c5ccccc45)cc3C(=O)N([C@@H](C)CO)C[C@@H]2C)cc1`?
A1 apoptosis 2: -1.3

Results for C[C@@H]1CN([C@@H](C)CO)C(=O)c2cc(NC(=O)Nc3ccc(F)cc3)ccc2O[C@@H](C)CCCCO[C@H]1CN(C)S(=O)(=O)c1cccs1 ?
A1 apoptosis 2: -0.9

2 successive compounds from above, for reference:
How did C[C@@H]1CN([C@@H](C)CO)C(=O)c2cc(NC(=O)NC3CCCCC3)ccc2O[C@@H](C)CCCCO[C@@H]1CN(C)S(=O)(=O)c1ccc(Cl)cc1 do in these assays?
A1 apoptosis 2: 0.9

How did C[C@@H]1CN([C@@H](C)CO)C(=O)c2cc(NC(=O)CCCCCC(=O)Nc3ccccc3N)ccc2O[C@H]1CN(C)S(=O)(=O)c1ccc(Cl)cc1 do in these assays?
A1 apoptosis 2: 0.4

Compounds shown so far that have a CF3 group, in the order listed:
How did C[C@H]1CN([C@@H](C)CO)C(=O)CCCn2nncc2CO[C@H]1CN(C)C(=O)Nc1cccc(C(F)(F)F)c1 do in these assays?
A1 apoptosis 2: 0.1

What do the screens show for `C[C@H]1CN([C@@H](C)CO)C(=O)c2cc(NC(=O)CCC(F)(F)F)ccc2O[C@@H]1CN(C)Cc1ccncc1`?
A1 apoptosis 2: 1.0

What do the screens show for `C[C@H](CO)N1C[C@H](C)[C@@H](CN(C)S(=O)(=O)c2ccc(F)cc2)Oc2ccc(NC(=O)CCC(F)(F)F)cc2C1=O`?
A1 apoptosis 2: 0.6

Results for Cc1ccc(S(=O)(=O)Nc2ccc3c(c2)C(=O)N([C@@H](C)CO)C[C@@H](C)[C@@H](CN(C)C(=O)Nc2ccc(C(F)(F)F)cc2)OCCCC[C@@H](C)O3)cc1 ?
A1 apoptosis 2: -0.9

Results for C[C@@H]1CCCCO[C@H](CN(C)C(=O)CCC(F)(F)F)[C@@H](C)CN([C@H](C)CO)C(=O)c2cc(NC(=O)Cc3ccccc3)ccc2O1 ?
A1 apoptosis 2: -1.1

Results for C[C@@H]1CCCCO[C@H](CN(C)C(=O)CCC(F)(F)F)[C@@H](C)CN([C@H](C)CO)C(=O)c2cc(NC(=O)CCC(F)(F)F)ccc2O1 ?
A1 apoptosis 2: -0.5

Bioassay records: PubChem, Broad Institute
